Assay outcomes as filed in PubChem BioAssay.
StopGo FLuc – FMDV 2A StopGo reporter, firefly signal; AID 1745856; actives 0.23% (n = 120,000); Potency, µM (doses to about 57.5 µM), for the others: top-dose signal change, negative = less light; HEK cells with a luciferase reporter of 2A StopGo recoding; active = well fitted falling curve with a large enough effect; inconclusive = small, poorly fitted or top-dose-only effect; inactive = no such curve, though single readings can be large or run the other way; also: nearly all actives have a fitted effect of over 60% in size; overnight with compound
2A Renilla – FMDV 2A StopGo reporter, Renilla signal. AID 1745857. Potency, µM (doses to about 57.5 µM), without a hit: at the top dose signal change, negative = less light. HEK cells with a luciferase reporter of 2A StopGo recoding. actives 0.32% (n = 120,000); active means well fitted falling curve with a large enough effect; inconclusive means small, poorly fitted or top-dose-only effect; inactive means no such curve, though single readings can be large or run the other way; also: nearly all actives have a fitted effect of over 55% in size; overnight with compound
* marks the source's active call; other numbers are inactive results; ? = inconclusive; [ ] = dose if it differs, or a comment. % is scaled to controls: 0 for no effect and ±100 for the full control effect; potency is read from the fitted curve at half-maximal effect.

structure | StopGo FLuc | 2A Renilla
COc1cccc(C(=O)Nc2cc(-c3ccccc3)no2)c1 | 83.3%[activator] | 6.3%
Cc1ccc(C)c(NC(=O)Cn2cc(S(=O)(=O)N3CCCC3)c(S(=O)(=O)N3CCCC3)c2)c1 | 2.0% | 0.1%
CCCCNS(=O)(=O)CC1NCc2ccccc21 (stereo not drawn) | 27.3% | 183.0%[activator]
COc1ccc(NC(=O)c2cc(S(=O)(=O)NCCC3=CCCCC3)ccc2F)cc1 | ? | 14.3%
CCCC(=O)Nc1ccccc1N1CCN(Cc2nc3ccccc3n2C)CC1 | -14.3% | -0.9%
O=C(Nc1nc(-c2ccccc2Cl)cs1)C1CCN(C(=O)c2ccoc2)CC1 | ? | ?
CCCOc1ccc(C2c3c(-c4ccccc4O)n[nH]c3C(=O)N2CCCOCC)cc1OCC (stereo not drawn) | -11.8% | 19.9%
CCOc1ccc(CCNC(=O)c2cn(C)c3ccc(S(=O)(=O)N4CCOCC4)cc3c2=O)cc1OCC | -13.8% | -10.0%
O=C1Nc2cc3c(cc2C1(O)C(F)(F)F)OCO3 (stereo not drawn) | 6.4% | 5.6%
CCc1ccc(-n2c(=O)c3c4c(sc3n(CC(=O)c3ccc(Br)cc3)c2=O)CCC4)cc1 | -25.3% | -19.7%
Cc1ccc(CNCc2c(C(=O)O)c(C)n(Cc3ccc(C)cc3)c2C)cc1 | -14.2% | 11.7%
Cc1ccc(CCn2c3c(c4cc(Cl)ccc42)CN(C)CC3)cn1 | -17.0%[11.5 µM] | -11.8%
CC(C)OCCCNC(=O)C1CCCCC1 | 22.7% | -0.8%
COC(=O)c1ccc(COc2ccc3c(C)c(Cc4ccccc4)c(=O)oc3c2)o1 | -0.7% | 29.1%[1.06 µM]
Cc1cccc(C(=O)NC(c2cccnc2)c2ccc(C)c(C)c2)c1 (stereo not drawn) | 6.6% | 22.3%
O=C(NC1CCCCC1)c1ccc2c(c1)N(Cc1ccccc1Cl)C(=O)c1ccccc1S2 | 100.0%[activator] | 120.6%[activator]
COc1ccc(C(c2ccc(OC)cc2)C(Cl)(Cl)Cl)cc1 | 17.0%[22.9 µM] | -25.1%[114 µM]
COc1cc(OC)c(NC(=O)Cn2nc3ccc(SC4CCCCC4)nn3c2=O)cc1Cl | 0.7% | -6.3%
COc1cc(OC)c(OC)cc1/C=C/C(=O)c1ccc(OC(F)F)cc1 | ? | ?
Cc1ccc(C(=O)NCCC23CC4CC(CC(C4)C2)C3)cc1 | 107.9%[activator] | 3.8%
CN1CCN(c2nc3ccccc3nc2C(=O)Nc2ccccc2)CC1 | -10.3% | -18.1%
CC(=O)c1cccc(NC(=O)CSc2ncc(-c3ccc(F)cc3)o2)c1 | 0.0% | -0.8%
CCOc1ccc(NC(=O)C(c2ccccc2)c2ccccc2)c2cccnc12 | 31.9%[activator] | 24.5%
COc1cccc(CNC(=O)Cn2ccc3cc(S(=O)(=O)N4CCCC4)ccc32)c1OC | -15.7% | 18.0%
COc1ccc2cc(-c3cc(C(=O)O)c4ccccc4n3)ccc2c1 | -55.1% | ?
CCCCc1ccc(C(=O)NCc2cccnc2)cc1 | 2.4% | ?
COc1cccc2cc(-c3nnc(SCC(=O)Nc4cc(C)ccc4C)n3N)oc12 | -2.6% | -4.9%
COc1ccc(CCN2C(=O)NC(NC(=O)c3ccccc3OC)(C(F)(F)F)C2=O)cc1OC (stereo not drawn) | -9.6% | -3.5%
COc1ccc2c(ccn2CC(=O)NCCCCCC(=O)O)c1 | 4.7% | -3.6%
CCCCCCn1c(N2CCOCC2)nc2c1c(=O)[nH]c(=O)n2C | 4.0% | -1.2%
CCc1nn(CCCC(=O)NC(C)c2ccccc2)c(=O)c2cc3occc3n12 (stereo not drawn) | -7.6% | 30.8%[activator]
COc1ccc(OC(=O)c2nc(SCc3ccc(F)cc3)ncc2Cl)cc1 | -8.5% | -1.7%
COc1ccc(-c2cn3nc(N4CCCC(C(=O)Nc5cccc(Cl)c5C)C4)sc3n2)cc1 (stereo not drawn) | 22.2% | -14.5%
Cc1ccc(C(CC(=O)Nc2ccc(C)cc2C)N2Cc3ccccc3C2=O)cc1 (stereo not drawn) | 7.7% | 288.8%[activator]
CCCN1CCN(CCCNc2nc(-c3ccc(OC)cc3)nc3ccccc23)CC1 | 26.5% | 1.5%
Cc1ccc(-n2ncc(C(=O)NC3CCCCC3)c2C2CCN(C(=O)OC(C)(C)C)CC2)cc1 | 0.4% | 5.4%
COc1ccc(C(=O)COC(=O)Cc2ccc(Cl)cc2Cl)cc1 | 41.6%[activator] | 48.6%[activator]
COc1ccc(-c2noc(CSc3nc(C4CC4)n(-c4ccccc4)n3)n2)cc1OC | ? | ?
CC(NCc1cccs1)C12CC3CC(CC(C3)C1)C2 (stereo not drawn) | 10.4% | 1.2%
COc1ccc(Cn2c(CNS(=O)(=O)c3ccc(Cl)s3)nc3cccnc32)cc1 | -12.0% | 135.3%[activator]
Cc1ccc(CNC(=O)C2CCN(C(=O)c3cnn(-c4ccccc4)c3-n3cccc3)CC2)cc1 | 0.0% | -22.2%
Cc1ccc(C(=O)Sc2nc(C)cc(C)n2)cc1 | 14.3% | 1.6%
C=CCNC(=O)CN1CCN(c2ccnc3c(F)ccc(F)c23)CC1 | 0.0% | 3.3%
O=C(Nc1cccnc1)c1nn(C2CCS(=O)(=O)C2)c2c1CCCC2 (stereo not drawn) | 30.3%[activator] | 8.4%
NC(CO)c1ccc(Oc2ccccc2)cc1 (stereo not drawn) | 5.7% | 32.5%[activator]
COc1ccc(C(=O)c2cn(Cc3ccccc3F)c3ccc(F)cc3c2=O)cc1 | -16.2% | -7.5%
CC(=O)Nc1ccc(NC(=O)C(C)Sc2nc(C(F)(F)F)nc3ccccc23)cc1 (stereo not drawn) | -0.6% | -2.0%
Cc1c(C(=O)O)oc2ccc(S(=O)(=O)Nc3ccccc3)cc12 | -0.6% | 64.1%[activator]
Nc1nnc(-c2cccc(Cl)c2Cl)c(N)n1 | -21.4% | -12.0%
COc1cccc(S(=O)(=O)N2CCN(Cc3nc4cccnc4n3-c3cccc(C)c3)CC2)c1 | -1.5% | 4.5%

A stretch from the list above, as a working copy:
structure | StopGo FLuc | 2A Renilla
COC(=O)c1ccc(COc2ccc3c(C)c(Cc4ccccc4)c(=O)oc3c2)o1 | -0.7% | 29.1%[1.06 µM]
Cc1cccc(C(=O)NC(c2cccnc2)c2ccc(C)c(C)c2)c1 (stereo not drawn) | 6.6% | 22.3%
O=C(NC1CCCCC1)c1ccc2c(c1)N(Cc1ccccc1Cl)C(=O)c1ccccc1S2 | 100.0%[activator] | 120.6%[activator]

(continued)
structure | StopGo FLuc | 2A Renilla
O=C(CSc1cn(CCNC(=O)c2ccccc2F)c2ccccc12)Nc1ccc2c(c1)OCCO2 | 6.3% | 3.2%
COc1cccc(C(=O)Nc2cc3nn(-c4ccccc4)nc3cc2Cl)c1 | 0.0% | -6.1%
Cc1ccc(NC(=O)CC(c2cccc(F)c2)n2cccc2)cc1N(C)C (stereo not drawn) | ? | ?
O=C(Nc1ccc(F)cc1)c1ccc2c(Cl)c3c(nc2c1)CCCC3 | 101.5%[activator] | 9.9%
Cn1c(=O)c2c(ncn2CC(=O)Nc2ccccc2C(=O)NC2CC2)n(C)c1=O | 18.3% | 1.2%
Cc1ccc(C)c(C(=O)OCC(=O)NC2CCC(C)CC2)c1 (stereo not drawn) | 75.1%[activator] | 2.5%
COc1c(/C=C(\C)[N+](=O)[O-])cc2c(c1OC)OCO2 | ? | ?
COc1ccc(S(=O)(=O)Nc2ccc(Nc3cc(N(C)C)nc(C)n3)cc2)c(C)c1C | ? | -42.3%
CCOCCOC(=O)C(C)Oc1ccc2c(=O)c(Oc3cccc(C)c3)c(C(F)(F)F)oc2c1 (stereo not drawn) | -11.4% | -5.4%
CCCNC(=O)c1cn(Cc2ccccc2)c2ccccc12 | 0.7% | 9.7%
Cc1ccc(C)c(OC(=O)CSc2nnc(-c3cccs3)o2)c1 | -24.9% | 124.3%[activator]
CN(CC(=O)N1CCCC1)C(=O)c1ccc(S(=O)(=O)NCc2ccco2)cc1 | 14.9% | 3.7%
CNC(=O)COc1cccc(N)c1 | 18.1% | 8.0%
O=C(Nc1c(C(=O)N2CCN(c3ccccc3F)CC2)oc2ccccc12)c1ccc(Br)o1 | -16.9% | 201.6%[activator]
Cc1cc(OC(C)C(=O)N(Cc2ccco2)Cc2ccccc2F)cc(C)c1Cl (stereo not drawn) | -22.8% | -9.6%
Cc1cccc(C)c1NC(=O)C1CCCN1S(=O)(=O)c1ccccc1 (stereo not drawn) | -12.0% | 5.5%
CCCOc1ccc(CNC(=O)C(C)n2nc(C)n3c(cc4occc43)c2=O)cc1 (stereo not drawn) | 16.2% | 12.6%
CC(=O)Nc1ccc(/C(C)=N\OCC(=O)NC(C)c2ccccc2)cc1 (stereo not drawn) | 0.0% | 0.0%
N#CSCC(=O)O | -3.4%[11.5 µM] | -1.3%
CCOC(=O)c1cccc(NC(=O)CC(c2ccc(F)cc2)N2Cc3ccccc3C2=O)c1 (stereo not drawn) | -6.4% | -11.3%
O=c1c2c([nH]n1-c1nc3ccccc3[nH]1)CCCC2 | 0.0% | ?
Cc1ccc(NC(=O)c2nc(S(C)(=O)=O)ncc2N(Cc2ccco2)Cc2ccccc2F)c(C)c1 | -12.1% | 82.4%[activator]
CCn1cc(C(=O)NCCCN(CC(C)C)CC(C)C)c(=O)c2cc(S(=O)(=O)N3CCc4ccccc4C3)ccc21 | 0.0% | -13.4%
COc1ccc(Br)cc1C(=O)Nc1nc2ccc(F)cc2s1 | 33.2%[activator] | -11.5%
COCCCNC(=O)CN(C)C(=O)CCc1ncc(-c2ccccc2)o1 | 0.0% | 0.1%
CCc1ccc(NC(=O)Cn2c(=O)c(-c3ccccc3NC(C)=O)nc3ccccc32)cc1 | -17.1% | -15.9%
CCC(=O)Nc1ccc(-c2csc(Nc3ccc(OC)cc3)n2)cc1 | 94.3%[activator] | -6.6%
COc1ccc(N2CC(C(=O)Nc3c(C)nn(C)c3C)CC2=O)cc1 (stereo not drawn) | 3.0% | -3.3%
Cc1ccc2nc(C)c(C(=O)NCc3ccc(N4CCC(C)CC4)nc3)cc2c1 | ? | ?
Cc1ccc(N2CC(C(=O)NCc3nnnn3-c3ccc(C)c(C)c3)CC2=O)cc1C (stereo not drawn) | -17.0% | -4.9%
Cc1cc(OCC(=O)N2CCN(CCc3ccncc3)CC2)cc(C)c1Cl | 10.5% | -8.6%
C[C@H]1O[C@@H](O[C@H]2CC[C@]3(C=O)[C@H]4CC[C@]5(C)[C@H](C6=CC(=O)OC6)CC[C@]5(O)[C@@H]4CC[C@]3(O)C2)C[C@H](O)[C@@H]1O | ? | 0.251µM*
COc1ccc(-n2nc3cc(C)c(NC(=O)c4ccc(Br)o4)cc3n2)cc1 | 119.6%[activator] | -3.7%
CN(C)CCOC1CC2CCC1(C)C2(C)C (stereo not drawn) | -15.1% | -4.1%
Cc1ccc(CNC(=O)c2oc3c(c2C)-c2nn(Cc4ccc(Cl)cc4)cc2CC3)cc1 | -22.4% | -0.5%
COc1cccc(-c2nc(CSCC(=O)NCc3ccccc3)c(C)o2)c1 | -6.2% | -15.6%
Cc1ccc(-c2cc(C(=O)NCc3ccncc3)[nH]n2)c(O)c1C | 0.0% | 101.0%[activator]
COC(=O)C1=CN(c2cccc(C(F)(F)F)c2)C=C(C(=O)OC)C1c1ccc(F)cc1 | -9.6% | 5.6%
N#CCOc1ccc2[nH]cc(C(C(=O)O)N3CCN(Cc4cccc(Cl)c4)CC3)c2c1 (stereo not drawn) | 14.8% | -8.6%
CCOc1ccc(NC(=O)c2oc3ccccc3c2NC(=O)c2cc(C)cc(C)c2)cc1 | -1.8% | -8.7%
COc1ccccc1-c1nnc(SCC(=O)N(C(C)C)C(C)C)n1N | 6.2% | 9.2%
COc1ccc(OCCOC(=O)Cc2coc3cc4c(cc23)CCC4)cc1 | 3.1% | 5.4%
O=C(c1noc2c1CCCCC2)N1CCN(c2cccc(C(F)(F)F)c2)CC1 | -23.2% | ?
Cc1ccc(C2CC(=O)C3=C(C2)OC(N)=C(C#N)C32C(=O)Nc3ccccc32)cc1 (stereo not drawn) | 0.1% | -17.3%
CCc1cc(=O)oc2c(C)c(OCC(=O)NCCc3ccc(S(N)(=O)=O)cc3)ccc12 | -8.3% | -2.6%
CCC(=O)N1CCc2cc(Br)cc(S(=O)(=O)Nc3ccc(C)cc3C)c21 | -20.0% | 68.9%[activator]
C#CC1(O)CCC2C3CCC4=CC(=O)CCC4(C)C3CCC21C (stereo not drawn) | -3.1% | -11.2%
Cc1ccc(CN2CCC(CNC(=O)Nc3ccc(C)c(C)c3)C2)cc1 (stereo not drawn) | -11.6% | -9.5%
Cc1ccc(CSc2nc3c(cc2C#N)C(=O)CC(C)(C)C3)cc1 | 13.4% | 16.4%
O=C(Nc1cccc2cccnc12)c1cc(-c2ccccc2)nc2ccccc12 | -6.3% | -1.3%

(listing goes on)
structure | StopGo FLuc | 2A Renilla
COc1cccc(CNC(=O)c2cc(C)cc(C)c2)c1 | 14.2% | 3.8%
CC(C)C(=O)NC(NC(C)(C)C)C(Cl)(Cl)Cl (stereo not drawn) | -0.9% | 1.5%
CCOC(=O)c1c(S(=O)(=O)N2CCCC(C(=O)Nc3ccccn3)C2)c(C)n(C)c1C (stereo not drawn) | -16.2% | -6.9%
CCCCCC1CCC(C(=O)Oc2ccc(C#N)cc2)CC1 (stereo not drawn) | -0.7% | -3.1%
CC(Oc1ccccc1Cl)C(=O)c1c[nH]c2ccccc12 (stereo not drawn) | 104.9%[activator] | 7.3%
Cc1ccc(S(=O)(=O)N(C)CC(=O)Nc2ccccc2OC(F)(F)F)cc1 | 10.1% | 9.1%
